# D2 PAM: human D2 receptor positive allosteric modulation; 360,000 tested, 0.23% active; potentiation, % (test concentration not listed); DiscoveRx D2 beta-arrestin cells, luminescence, 90 min; 100% = 57 uM dopamine signal; P14416; active = potentiation of 50% or more; inconclusive = 30% to 50%; inactive = 30% or less;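 also: compound concentration not given in the record; tested on top of an EC20 dose of dopamine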
# Target sequence (P14416 whole entry, looked up): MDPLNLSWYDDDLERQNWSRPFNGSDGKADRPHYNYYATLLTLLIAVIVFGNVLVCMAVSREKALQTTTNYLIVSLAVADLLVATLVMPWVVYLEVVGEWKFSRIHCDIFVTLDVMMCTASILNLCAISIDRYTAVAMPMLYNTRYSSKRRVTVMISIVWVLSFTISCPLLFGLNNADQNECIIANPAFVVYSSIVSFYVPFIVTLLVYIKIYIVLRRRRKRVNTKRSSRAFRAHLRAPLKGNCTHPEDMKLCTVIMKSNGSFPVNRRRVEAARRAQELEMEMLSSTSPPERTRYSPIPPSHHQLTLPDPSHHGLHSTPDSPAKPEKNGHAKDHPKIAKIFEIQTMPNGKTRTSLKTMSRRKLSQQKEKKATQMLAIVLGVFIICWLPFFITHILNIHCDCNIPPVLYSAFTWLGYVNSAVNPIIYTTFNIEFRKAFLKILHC
#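 PathHunter D2 cells, attached overnight at 37 deg C, received compound in DMSO plus dopamine at EC20 (50 nM final) for 90 min at 37 deg C. Beta-arrestin recruitment was read as luminescence after 1 h with detection reagent at ambient temperature.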
# D2 ag: agonists of human D2 dopamine receptor (beta-arrestin); activation, % (no concentration beside the values); DiscoveRx PathHunter D2 beta-arrestin, luminescence, 90 min; 100% = 57 uM dopamine signal; AID 624465; 360,000 tested, 0.084% active; P14416; in the data active = activation above about 40%; inconclusive = about 15% to 40%; inactive = below about 15%; also: compound concentration not given in the record; the text of the record calls up to 30% inactive
#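 Agonist mode: compounds alone added to overnight-plated D2 PathHunter cells for 90 min at 37 C, with 57 uM final dopamine (EC100) defining full response. Beta-arrestin recruitment detected by chemiluminescent reagent, read after 1 h at ambient temperature.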
# Six1-Eya2 inh: inhibitors of human Six1/Eya2 interaction | AID 651725 | 360,000 tested, 0.56% active | Q15475+O00167 | activity change, % (no concentration beside the values) | AlphaScreen GST-Six1/His-Eya2 binding, biochemical; hits give low values; control for the full effect not named in the record; in the data active = activity change below about -65%; inconclusive = about -30% to -65%; inactive = above about -30%; also: % is scaled to controls: 0 for no effect and ±100 for the full control effect; compound concentration not given in the record
#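 Compounds are tested against tagged Six1 and Eya2 proteins bridged by glutathione donor and nickel acceptor beads; after a one-hour incubation at 37 °C without light, AlphaScreen emission is recorded.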
# CtBP-E1A blk: blocks the CtBP interaction with E1A. AID 651724. AlphaScreen GST-E1A/His-CtBP binding, 1536-well; hits give low values; control for the full effect not named in the record. activity change, % (concentration not given with the values). 340,000 tested, 0.49% active; in the data active means activity change below about -65%; inconclusive means about -30% to -65%; inactive means above about -30%; also: % is scaled to controls: 0 for no effect and ±100 for the full control effect
#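 Homogeneous bead-based format: GST-tagged E1A captured on glutathione donor beads, His-tagged CtBP on nickel acceptor beads; compounds precede bead addition by 2 h at 37 °C.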
# PINK1 modulator: PINK1 expression modulation; PINK1 immunofluorescence, high-content cytometry, 24 h; 410,000 tested, 0.2% active; AID 624263; Potency, µM (titrated, usually from 76.6 µM), inactives show at the highest dose activation (PINK1 increase), hits mostly activators; active = well fitted activation curve with a large enough effect; inconclusive = small, poorly fitted or top-dose-only effect; inactive = flat fitted curve, though single readings scatter; cell line not stated here;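 also: potency is read from the fitted curve at half-maximal effect; % of control where 0% means no effect; nearly all actives have a fitted effect of over 65% in size; a mitochondrial uncoupler was the plate control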
#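 Fluorescence from anti-PINK1 antibody, together with nuclear and cell stains, was scanned on a laser-scanning cytometer. Before staining, stable-line cells were incubated 24 hours with compounds at 5 concentrations; primary antibody 12 h at 10 degrees C.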
# Sfp inh: inhibitors of Bacillus subtilis Sfp phosphopantetheinyl transferase. 310,000 tested, 3.5% active. Biochemical Sfp PPTase activity, qHTS. AID 1490. Potency, µM, for inactives: max response, negative = inhibition, most hits filed as inhibitors. Q9F4F7; active = well fitted inhibition curve with a large enough effect; inconclusive = small, poorly fitted or top-dose-only effect, or another doubt; inactive = no such curve, though single readings can be large or run the other way;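 also: the enzyme is Sfp with the accession as filed and its product quenches rhodamine fluorescence; potency is read from the fitted curve at half-maximal effect; 0% = enzyme reaction without inhibitor and -100% = no enzyme wells; top concentration of the series not given in the record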
#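 Step 1, compound plus 15 nM Sfp-PPTase, 15 min, room temperature. Step 2, add rhodamine-CoA (5 uM) and BHQ-2-YbbR (12.5 uM). Step 3, read 525/598 nm fluorescence at 0 and 30 min.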
# TRPV1 PAM: enhances activation of the human vanilloid receptor TRPV1. TRPV1-expressing cells, Fluo-8 calcium influx, capsaicin EC20 potentiation; host cell line not named in the record; control for the full effect not named in the record. 320,000 tested, 0.02% active. AID 540277. potentiation, % at 8.33 µM; active means potentiation above 80%; inconclusive means 30% to 80%; inactive means below 30%; also: 0% is about no effect
#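 Fluo-8 calcium influx in TRPV1-expressing cells, kinetic read (ex 480/em 520 nm). Compound added and read 3 min for agonist activity, followed by capsaicin at EC20 final and 2 min further read for enhancement.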
# * hit, by the source's call; ? = inconclusive; nt = not tested or not shown; [ ] = dose if it differs, or a comment. Compounds as they come; overall some 3.7% were active at least once.
SMILES,D2 PAM,D2 ag,Six1-Eya2 inh,CtBP-E1A blk,PINK1 modulator,Sfp inh,TRPV1 PAM
CCc1c(C)nn(C(=O)/C(C#N)=C\N(C)C)c1C,-2,-2.4,5,0,2.0%,13%,-2
O=C(c1ccc([N+](=O)[O-])cc1)N1CCN(c2ncc(Br)cn2)CC1,-5,3.0,7,nt,3.7%,8%,-4
COc1cc(C2Nc3cc(Cl)c(S(N)(=O)=O)cc3S(=O)(=O)N2)cc(OC)c1OC (stereo not drawn),-13,1.0,7,7,-1.6%,13%,-4
CN1C2=C(C(=O)CC(C)(C)C2)C(c2cccs2)C2=C1CC(C)(C)CC2=O,-15,3.7,14,3,-0.2%,nt,nt
CC(=O)NCC(=O)N(C)C(C(=O)Nc1ccc2c(c1)OCCO2)c1ccccc1 (stereo not drawn),12,-4.5,-5,4,0.9%,-3%,?
O=C(CNS(=O)(=O)c1ccc([N+](=O)[O-])cc1)N/N=C\c1ccc(O)cc1,-2,?,1,nt,2.0%,2%,21
CN1CCCN(C(=O)/C=C/c2ccc(F)cc2)CC1,-10,-4.4,2,-1,-1.4%,3%,-2
CCOC(=O)C1=C(C)N(c2ccc(C)cc2)C(=O)/C1=C\c1cccs1,5,1.3,-1,-5,-0.1%,-16%,13
CCOc1c(Cl)cc(C(=O)NCCN2CCCCC2)cc1Cl,-17,1.5,-2,0,2.2%[38.3 µM],24%,7
CCn1c(NCc2ccc(N(C)C)cc2)nc2ccccc21,-14,1.7,-23,-26,-1.4%,-2%,12
Cc1ccccc1/C(N)=N/OC(=O)N1c2ccccc2Sc2ccccc21,?,12,-20,-24,2.3%[38.3 µM],0%,1
COc1ccc2c(C)cc(=O)oc2c1C,-17,-2.6,1,2,0.5%,-6%,?
O=C(CCCSc1nc2ccccc2[nH]1)NCc1ccccc1F,-2,-2.0,7,3,0.8%,22%,-4
CCOc1ccccc1C(=O)Nc1cccc(-c2ccc3nncn3n2)c1,1,0.4,?,?,0.4%,12%,1
CC(=O)Nc1ccc(NC(=O)COc2cccc3ccccc23)cc1,4,-0.5,0,0,2.1%,nt,nt
O=C(Nc1ccc(C(=O)N2CCOCC2)cc1)c1cnn2c(C(F)F)cc(-c3ccccc3)nc12,-1,2.1,0,6,5.7%,-2%,-1
CCN(CC(=O)NC(=O)NC1CCCC1)Cc1ccccc1,1,-4.5,2,0,0.3%,nt,-4
Cc1cc(=O)oc2c(C)c(OC(C)C(=O)NC3CCN(Cc4ccccc4)CC3)ccc12 (stereo not drawn),-12,-4.0,5,6,3.1%,15%,-8
C/C(=N/N=C/c1ccc(N(C)C)cc1)c1ccccc1,-8,2.4,-21,-23,1.0%,-13%,8
N#CC1=C(N)N(c2ccc(F)cc2)C(=O)C1,-4,-1.5,4,3,0.8%[38.3 µM],?,11
CCN=C(NS(=O)(=O)c1ccc(Br)cc1)c1ccc(Cl)cc1,-3,0.1,5,15,4.1%,22%,7
Cc1ccc(-c2cc(C(=O)N3CCN(C4CCS(=O)(=O)C4)CC3)c3ccccc3n2)cc1 (stereo not drawn),4,-0.1,-1,2,0.2%,nt,9
COC(=O)c1nn(-c2ccccc2)c(=O)cc1Oc1ccc(Cl)cc1,-11,-2.4,1,-1,0.1%,12%,-4
COc1ccc(CC(=O)NC2CCN(CC(=O)N3CCCc4ccccc43)CC2)cc1OC,-13,-2.8,-1,-1,0.6%[38.3 µM],5%,-2
Cc1c(S(=O)(=O)Nc2cc(Cl)ccc2Cl)c(=O)n(C)c(=O)n1C,1,0.5,16,10,0.1%,14%,?

# The list goes on.
SMILES,D2 PAM,D2 ag,Six1-Eya2 inh,CtBP-E1A blk,PINK1 modulator,Sfp inh,TRPV1 PAM
Cc1ccc(-c2noc(C3CCCN(C(=O)c4ccc(F)cc4F)C3)n2)cc1 (stereo not drawn),-5,-1.1,3,1,1.7%[38.3 µM],3%,-17
CC(/C=N/Nc1nnc2c(n1)[nH]c1ccccc12)=C\c1ccco1,-9,-0.4,-1,0,3.0%[38.3 µM],-11%,3
Cc1ccc(Nc2cc(C)c(O)c(C)c2)cc1,?,10,-14,-4,4.7%,?,21
Cn1cc(CCC(=O)NC2CC(C)(C)Cc3c2cnn3-c2ccc(F)cc2)cn1 (stereo not drawn),0,-4.9,-1,-8,-3.0%,14%,-1
O=C1C2C3C=CC(O3)C2C(=O)N1Nc1ccccc1 (stereo not drawn),1,4.5,0,-3,-0.7%,nt,nt
N#Cc1ccc(CC(C(=O)O)N2Cc3ccccc3C2=O)cc1 (stereo not drawn),-12,-8.9,3,nt,1.5%,-4%,1
Cc1cc(Cl)c2oc(C(=O)NC(C)c3ccncn3)c(C)c2c1 (stereo not drawn),-14,-5.7,3,0,1.0%,12%,-23
CCCCNC(=O)CC(NS(=O)(=O)c1ccc(C)cc1)c1ccco1 (stereo not drawn),1,-4.2,2,12,2.1%[38.3 µM],24%,-5
CC1CN(C(=O)COC(=O)c2cc(=O)[nH]c3ccccc23)CC(C)O1 (stereo not drawn),-8,-0.4,0,5,-0.9%,nt,nt
Cn1ccc2c(N3CCCCC3)cc3c(c21)C1CCC3C1 (stereo not drawn),-8,2.8,?,?,6.6%,nt,nt
Cc1cccc(NC(=O)CSc2nnc(NC(=O)C3CC3)s2)c1C,4,-1.4,0,0,0.0%,30%,-5
N#Cc1cc(S(=O)(=O)c2ccccc2)c(N)[nH]c1=O,-14,-4.7,2,1,-0.2%,-16%,29
CCOC(=O)C1=C(COC(=O)/C=C/c2cccc(OC)c2OC)NC(=O)NC1C (stereo not drawn),2,-4.0,4,10,?,4%,12
Oc1ccccc1C=NNC(=S)NN=Cc1ccccc1O,-9,-0.1,-81*,-95*,3.3%,nt,nt
COc1ccc(/C=N/N2CCOCC2)cc1Cn1cc([N+](=O)[O-])cn1,-4,5.6,-18,-14,-1.1%,6%,10
COc1cccc(C(=O)Nc2nnc(S(=O)(=O)N(C)Cc3ccc(F)cc3)s2)c1,-2,-4.9,-2,-1,2.7%,16%,13
O=C(COC(=O)CCc1ccc(S(=O)(=O)N2CCOCC2)cc1)Nc1ccccc1OC(F)F,-1,-0.2,8,-2,-1.8%,nt,nt
Cc1ccnc(NS(=O)(=O)c2ccc(NC(=O)C3COc4ccccc4O3)cc2)n1 (stereo not drawn),-6,-2.7,-3,nt,-0.8%,16%,5
COc1ccc(N/N=C(/C#N)S(=O)(=O)c2nsc(C)c2C#N)cc1,-24,-0.2,-1,-6,-0.1%,-2%,-6
Cc1nnc(SCC(=O)N2CCc3ccccc3C2)s1,-1,-1.8,2,2,-2.8%,9%,-11
CSc1ccc(Cl)c(C(=O)NC2CCCC2)c1,-19,-4.8,-1,0,-0.1%,16%,-10
O=C(Oc1ccnc2cc(Cl)ccc12)N1CCOCC1,-7,0.9,3,9,5.8%[38.3 µM],-4%,5
N#C[C@H]1C(O)C(O)c2ccccc2N1C(=O)c1ccccc1 (stereo partly drawn),11,7.2,7,3,1.0%,nt,nt
COc1ccccc1CCc1nnc(CCC(=O)NCC(C)Oc2cccnc2)o1 (stereo not drawn),-2,-3.9,6,0,2.3%,2%,0
C/C(=N\NC(=O)c1cc(-c2ccc(C)s2)[nH]n1)c1ccco1,-17,1.7,-6,nt,8.0%,9%,3

# Retrieved by structure from the list above, 2 records:
SMILES,D2 PAM,D2 ag,Six1-Eya2 inh,CtBP-E1A blk,PINK1 modulator,Sfp inh,TRPV1 PAM
O=C(CNS(=O)(=O)c1ccc([N+](=O)[O-])cc1)N/N=C\c1ccc(O)cc1,-2,?,1,nt,2.0%,2%,21
COc1ccc(CC(=O)NC2CCN(CC(=O)N3CCCc4ccccc43)CC2)cc1OC,-13,-2.8,-1,-1,0.6%[38.3 µM],5%,-2

# 5 consecutive entries from above:
SMILES,D2 PAM,D2 ag,Six1-Eya2 inh,CtBP-E1A blk,PINK1 modulator,Sfp inh,TRPV1 PAM
Cc1ccc(-c2noc(C3CCCN(C(=O)c4ccc(F)cc4F)C3)n2)cc1 (stereo not drawn),-5,-1.1,3,1,1.7%[38.3 µM],3%,-17
CC(/C=N/Nc1nnc2c(n1)[nH]c1ccccc12)=C\c1ccco1,-9,-0.4,-1,0,3.0%[38.3 µM],-11%,3
Cc1ccc(Nc2cc(C)c(O)c(C)c2)cc1,?,10,-14,-4,4.7%,?,21
Cn1cc(CCC(=O)NC2CC(C)(C)Cc3c2cnn3-c2ccc(F)cc2)cn1 (stereo not drawn),0,-4.9,-1,-8,-3.0%,14%,-1
O=C1C2C3C=CC(O3)C2C(=O)N1Nc1ccccc1 (stereo not drawn),1,4.5,0,-3,-0.7%,nt,nt

# CtBP-E1A blk: entries above that show a hit.
smiles	D2 PAM	D2 ag	Six1-Eya2 inh	CtBP-E1A blk	PINK1 modulator	Sfp inh
Oc1ccccc1C=NNC(=S)NN=Cc1ccccc1O	-9	-0.1	-81*	-95*	3.3%	nt

# Other records
SMILES,D2 PAM,D2 ag,Six1-Eya2 inh,CtBP-E1A blk,PINK1 modulator,Sfp inh,TRPV1 PAM
CCC(=O)N(Cc1cc(=O)[nH]c2ccccc12)c1ccccc1,0,1.8,12,0,0.5%,-14%,3
O=C1c2ccccc2/C(=C\c2ccc3[nH]ccc3c2)N1c1ccccc1,-7,5.0,-9,-5,2.1%,nt,nt
Nc1nc(SCc2ccccc2Cl)c2ncn(C3OC(CO)C(O)C3O)c2n1 (stereo not drawn),1,-2.9,-7,-4,6.2%,nt,nt
Cc1ccc(CNC(=O)COC(=O)c2cccc(S(=O)(=O)N3CCCCC3)c2)cc1,1,0.4,-1,5,1.5%,nt,-12
C/C(=N\Nc1ccc(S(N)(=O)=O)cc1[N+](=O)[O-])c1cccs1,-14,1.4,-21,-11,0.9%,1%,3
CCCNC(=O)C12CCC(C)(C(=O)C1Br)C2(C)C (stereo not drawn),-6,-4.2,5,8,1.4%,20%,8
Cc1c(C)c2ccc(O[C@@H]3O[C@H](CO)[C@@H](O)[C@H](O)[C@H]3O)c(C)c2oc1=O,-9,-3.4,0,-2,-0.7%,4%,29
COCCn1c(-c2ccc(OC)cc2)cnc1SCC(=O)Nc1cccc2ccccc12,1,-1.6,?,?,5.2%[38.3 µM],6%,?
Cn1c(SCC(=O)NCc2ccccc2)nnc1C1CC1,-23,-0.6,4,0,0.3%,13%,-2
CC1=C(C(=O)OCc2ccccc2)C(c2ccco2)n2ncnc2N1 (stereo not drawn),0,2.3,-5,0,3.8%,10%,10

# Screening data (PubChem)
